Assay outcomes (PubChem)
KCNQ2 block: KCNQ2 channel blockers in CHO-K1 cells – cell-based, FluxOR thallium flux, B-score, primary screen (AID 2156) | 20 min; stronger effect = lower value; only compounds with negative scores are shown here; some inactives read as strong as hits | B-score at 10 µM | O88943 | 310,000 tested, 1.1% active;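 active means fluorescence ratio B-score at most minus 3 library SDs, with starting brightness B-score within 2 library SDs, cut at about -5.5 in these data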
Target sequence (O88943 whole entry, looked up): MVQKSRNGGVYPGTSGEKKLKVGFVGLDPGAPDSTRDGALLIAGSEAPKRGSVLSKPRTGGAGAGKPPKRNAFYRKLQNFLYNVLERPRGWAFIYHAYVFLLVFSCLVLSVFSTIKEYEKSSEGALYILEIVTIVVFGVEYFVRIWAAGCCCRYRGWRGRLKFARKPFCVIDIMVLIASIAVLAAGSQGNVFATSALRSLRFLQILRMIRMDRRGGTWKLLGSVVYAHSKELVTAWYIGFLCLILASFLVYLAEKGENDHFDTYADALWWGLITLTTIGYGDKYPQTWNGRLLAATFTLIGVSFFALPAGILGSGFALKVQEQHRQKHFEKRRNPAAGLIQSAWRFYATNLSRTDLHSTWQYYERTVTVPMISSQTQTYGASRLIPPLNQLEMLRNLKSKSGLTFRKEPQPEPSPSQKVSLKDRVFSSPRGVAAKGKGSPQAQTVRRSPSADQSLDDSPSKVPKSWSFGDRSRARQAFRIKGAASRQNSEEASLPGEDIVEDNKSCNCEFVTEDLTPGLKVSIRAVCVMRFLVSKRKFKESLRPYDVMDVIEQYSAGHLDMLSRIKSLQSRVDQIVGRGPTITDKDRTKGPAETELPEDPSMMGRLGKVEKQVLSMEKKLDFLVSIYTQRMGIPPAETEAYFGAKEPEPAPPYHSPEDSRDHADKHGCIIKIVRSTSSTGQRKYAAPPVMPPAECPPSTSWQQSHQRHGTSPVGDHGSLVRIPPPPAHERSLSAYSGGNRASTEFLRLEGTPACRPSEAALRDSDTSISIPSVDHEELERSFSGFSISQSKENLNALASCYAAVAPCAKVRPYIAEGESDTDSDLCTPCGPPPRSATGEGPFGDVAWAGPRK
KCNQ2 block baseline: recorded beside KCNQ2 block, whose call it bears; B-score; measured here: initial fluorescence intensity artifact check;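 brightness before thallium and not channel activity; 0 = typical well and far values either way flag optical interference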
* hit, by the source's call; i = inactive; & = joins results of further samples. Some of the compounds tested; count on the stated rates, not on these rows.

SMILES	KCNQ2 block	KCNQ2 block baseline
COc1ccc(O)c(/C=c2/sc3nc4cc(C)c(C)cc4n3c2=O)c1	i	-0.79
COc1ccc(C(=O)C(C)OC(=O)c2cccc(S(=O)(=O)Nc3cc(Cl)c(OC)cc3OC)c2)cc1 (stereo unspecified)	i	0.9
O=C(C1=C(O)C(=O)N(CCCN2CCOCC2)C1c1ccncc1)c1cc2ccccc2o1 (stereo unspecified)	i	-0.78
Cc1cc(OCC(O)CN2CCc3ccccc3C2)ccc1Cl (stereo unspecified)	i	0.28
CCOC(=O)c1sc(NC(=O)CSc2nc3c(c(-c4ccc(OC)cc4)c2C#N)CCCC3)c(C#N)c1C	i	-0.89
O=S(=O)(c1ccccc1)N1CCC2(CC1)CO2	i	2.81
CCc1nnc(NC(=O)CC23CC4CC(CC(Br)(C4)C2)C3)s1	i	-0.03
CC1CCCCN1CC(O)COCc1ccccc1 (stereo unspecified)	i	1.53
c1ccc(C2=NNC(c3ccco3)=Nc3ccccc32)cc1	i	2.5
Cc1nc2ccccc2n1C(=O)c1cc(-c2ccc(Br)cc2)nc2ccccc12	i	0.24
COc1ccc(C(=O)c2c(-c3ccc(OC)cc3)oc3ccc(-c4cc(OC)c(OC)c(OC)c4)cc23)cc1	i	-0.39
Cc1ccc(/C=[N+](/[O-])C2SC(=S)N(C)C2(C)C)cc1 (stereo unspecified)	i	-0.62
Cc1ccc(C)c(-n2c(-c3ccc(Br)cc3)csc2=NC(=O)c2ccccc2F)c1	i	1.03
Cc1nonc1C1CCCN1Cc1nc(-c2ccc(F)cc2F)oc1C (stereo unspecified)	i	-0.77
Cc1nn(CCCC(=O)NCc2ccccc2)c(=O)c2nn(-c3ccccc3)c(C)c12	i	0.19
Cc1nc(SCC(=O)NCc2ccco2)c2c(C)c(C)sc2n1	i	-0.16
CCOc1ccc(N(CC(=O)NCc2ccccc2)S(=O)(=O)c2ccc(C)cc2)cc1	i	0.1
COc1ccc(OCCCC(=O)Nc2ccc3c(c2)OCO3)cc1	i	0.55
Cc1cc(CNC(=O)C2CCC(=O)N(CCc3cccc(F)c3)C2)on1 (stereo unspecified)	i	0.04
COc1ccc(N2CCN(S(=O)(=O)c3ccc(Cl)s3)CC2)cc1	i	-0.05
CC(C)(C)c1ccc(-c2ccc3c(c2)S(=O)(=O)c2ccccc2C3=O)cc1	i	0.45
CN=c1scc(-c2cc(OC)ccc2OC)n1/N=C/c1c(C)[nH]c2ccccc12	i	-0.15
FC(F)(F)c1cc(C(F)(F)F)c2ccc(N3CCN(c4ccccc4)CC3)nc2n1	i	-1.14
Cn1c(=O)c2c(nc(SCCN3CCOCC3)n2Cc2cccc3ccccc23)n(C)c1=O	i	0.72
CCCCOc1ccc(N(CC(=O)NC2CCCCC2)C(=O)c2snc(C(N)=O)c2N)cc1	i	1.84
CC(C)(C)NC(=O)CSc1nnc(-c2ccncc2)o1	i	0.89
CN(/N=C/c1cc(Cl)cc(Cl)c1O)c1c(Cl)cccc1[N+](=O)[O-]	i	-0.58
COc1c(CC=C(C)C)c(O)cc2oc(=O)c3c4ccc(O)cc4oc3c12	i	-0.36
NC(=O)CSc1nc2cc3c(cc2c(=O)n1CCCC(=O)NCc1ccc2c(c1)OCO2)OCO3	i	0.82
Nc1c(C(=O)C2CC2)sc2nc(-c3cccs3)cc(C(F)(F)F)c12	i	1.81
COc1ccc(/C=C2\N=C(C)OC2=O)cc1OC	i	-1.18
O=C(O)c1ccccc1C(=O)Nc1ccccc1NC(=O)c1ccccc1C(=O)O	i	-0.01
COc1cccc2cc(C(=O)N3CCN(c4ccc(C)cc4C)CC3)c(=O)oc12	i	1.06
O=C(c1ccc(OC2CCN(CCc3ccccc3)CC2)cc1)N1CCCC(CCCO)C1 (stereo unspecified)	i	0.23
O=C(c1ccccc1)N1CCN(C2C3CC4CC(C3)CC2C4)CC1 (stereo unspecified)	i	-0.16
Cc1cccc(N(C(=O)Nc2ccccc2)C2=NCC(C)S2)c1 (stereo unspecified)	i	1.23
CCN(CC)S(=O)(=O)c1cccc(-c2n[nH]c(=S)n2/N=C/c2ccc(C(=O)OC)cc2)c1	i	-2.45
CCOC(=O)C1(P(=O)(c2ccccc2)c2ccccc2)CCC1	i	0.03
COc1ccc2c(=O)c(Oc3ccc(C(=O)O)cc3)c(C(F)(F)F)oc2c1	i	-1.14
O=C(CCCN1C(=O)/C(=C/c2cccs2)SC1=S)Nc1ccccn1	i	3.37
O=C(Cn1nc(-c2ccccc2)c2ccccc2c1=O)Nc1cccc(O)c1	i	-0.06
O=C(/C=C/c1ccc(Cl)cc1)N1CCN(Cc2ccccc2)CC1	i	-0.03
CC(C)(C)OC(=O)NCCc1nnc(SCc2ccc(Cl)cc2Cl)o1	-5.88*	-2.25*
O=C(O)c1ccc(NS(=O)(=O)c2ccc(Cl)c(C(=O)Nc3ccccc3)c2)cc1	i	0.4
N#Cc1c2c(c(Nc3ccc(O)cc3)n3c1nc1ccccc13)CCC2	i	-0.3
CSCC[C@H](NC(=O)OC(C)(C)C)C(=O)NCC1CCC(C(=O)N[C@@H](Cc2ccccc2)C(=O)O)CC1 (stereo partly specified)	i	0.05
N#C/C(=C\c1cccc([N+](=O)[O-])c1)c1nnc2n1CCCCC2	i	0.67
O=CN1CCCN(C(=O)CC2C(=O)NCCN2Cc2cccc(Oc3ccccc3)c2)CC1 (stereo unspecified)	i	1.44
O=C(Cn1cnc2ccccc21)NCc1ccccc1	i	1.62
COCCCn1c(SCC(=O)Nc2ccc3c(c2)OCCO3)nnc1-c1ccoc1C	i	0.03
CSCC(O)Cn1[nH]c(=O)c2cc(Cl)c(Cl)cc2c1=O (stereo unspecified)	i	0.31
CCOC(=O)COc1ccc(S(=O)(=O)NCc2cccnc2)cc1	i	-1.61
O=C(CSc1nnc(C2COc3ccccc3O2)o1)N1CCCc2ccccc21 (stereo unspecified)	i	-0.84
COc1ccc(Br)cc1/C=N/n1nnnc1N	i	-0.3
O=C(O)Cn1c(=O)c2c3c(sc2n(Cc2ccccc2)c1=O)CCCC3	i	-0.74
O=S(=O)(c1ccc(F)cc1)N1CCN=C1SCc1cccc(F)c1	i	-0.03
CC(NC(=O)c1cc(-c2cccnc2)nc2ccc(Br)cc12)C1CCCO1 (stereo unspecified)	i	1.44
O=C(COC(=O)C1CCN(S(=O)(=O)c2cccs2)CC1)Nc1ccccc1Br	i	-0.57
Nc1ccc(Nc2ccccc2)c(Cl)c1	i	0.02
CCOC(=O)N/N=C\C=C\c1ccc2c(c1)OCO2	i	-0.9
Remaining list, next part:
SMILES	KCNQ2 block	KCNQ2 block baseline
Clc1cccc(C2=NOC(c3nnc(-c4ccccc4)o3)C2)c1 (stereo unspecified)	i	0.13
Oc1cccc(/C=N/N=C/c2cccc(O)c2O)c1O	i	0.32
CC(Sc1nc(N)cc(=O)[nH]1)C(=O)Nc1sc2c(c1C#N)CCCC2 (stereo unspecified)	i	-0.26
O=C(C1CCN(S(=O)(=O)c2cccc3nsnc23)CC1)N1CCn2c1nc1ccccc12	i	-0.03
O=C(NCCC1=CCCCC1)C(c1ccccc1)c1ccccc1	i	-1.62
O=C(Nc1ccccc1N1CCOCC1)c1ccc([N+](=O)[O-])o1	i	0.67
COc1ccc(N(CC(=O)NC2CC3CCC2C3)S(=O)(=O)c2ccccc2)cc1Cl (stereo unspecified)	i	0.95
CNC(=O)C12CC3CC(C1)CC(c1ccc(C)cc1)(C3)C2	i	-0.86
O=C(SCC(O)C(O)CS)c1cccs1 (stereo unspecified)	i	1.18
Cc1ccc(C(=O)N2CCN(c3ccccc3Cl)CC2)cc1[N+](=O)[O-]	i	-1.62
Cc1cc(-c2ccc(C(C)C)c(S(=O)(=O)N3CCN(c4ccccn4)CC3)c2)on1	i	-0.51
c1cncc(-c2nc(N3CCCCCC3)c3ccccc3n2)c1	-7.41*	-1.9*
Cc1ccc(CN(C)S(=O)(=O)c2c(C)noc2/C=C/N(C)C)cc1	i	-2.11
O=C(CNC(=S)NC(=O)C1CCCCC1)c1ccccc1	i	0.68
CN(CC(=O)Nc1cccc([N+](=O)[O-])c1)S(=O)(=O)c1ccccc1	i	-1.08
COc1ccccc1/C=N/NC(=O)C1=NNC(c2ccccc2)(c2ccccc2)C1	i	1.42
COC(=O)[C@H](C)NC(=O)NC1CCCc2ccccc21 (stereo partly specified)	-6.47*	-0.4*
CC1CCC(NC(=O)c2ccc3c(c2)OCO3)CC1 (stereo unspecified)	i	0.12
CCc1ccc2nc(NC(=O)c3ccc(N4C(=O)CCC4=O)cc3)sc2c1	i	-1.36
COc1ccc(-c2ccc(=O)n(CC(=O)NC3CCc4ccccc43)n2)cc1OC (stereo unspecified)	i	0.03
Cn1nc(C(F)(F)F)c(/C=N/OC(=O)c2ccccc2Cl)c1SCc1ccc(Cl)cc1	i	0.94
O=C(NC1CCCCC1)N1CCN(C2CCCCC2)CC1	i	0.18
CN(c1ccccc1C(=O)Nc1ccc2c(c1)OCO2)S(C)(=O)=O	i	-0.94
CC1CN(C(=O)c2ccccc2C(=O)c2ncc[nH]2)CC(C)O1 (stereo unspecified)	i	-1.15
Nc1nc2n(n1)C(c1ccco1)CC(c1ccc(Cl)cc1)N2 (stereo unspecified)	i	-0.08
Cc1ccc(C)c(Cn2nc(-c3cc(C)ccc3C)ccc2=O)c1	i	-0.07
Cc1nonc1OCCNCc1c(C(=O)N(C)C)nc2ccc(Cl)cn12	i	0.17
Clc1ccc(C(c2ccccc2)N2CCN(c3ccccn3)CC2)cc1 (stereo unspecified)	i	1.04
COc1ccccc1NC(=O)C1CCN(C(=O)c2ccco2)CC1	i	-1.85
CNC(=O)c1cnc(-c2ccccc2)nc1-c1ccccc1	i	0.71
O=C(Nc1ccccc1N1CCN(c2ccccc2)CC1)c1ccccc1F	i	-0.85
COc1cc(C2c3sc(=O)[nH]c3SC3C4CCC(C4)C23)ccc1O (stereo unspecified)	i	-2.47
O=[N+]([O-])c1ccc(C(=Nc2cccc3ccccc23)N2CCOCC2)cc1	i	-1.64
CCC(=O)N1CCN(c2ccc(OC)cc2[N+](=O)[O-])CC1	i	0.11
Cc1n[nH]c(=S)n1-c1ccccc1	i	3.13
Cc1nc2ccc([N+](=O)[O-])cc2c(=O)n1Cc1cccc(Br)c1	i	-0.68
CCN1CCN(C(=O)C2CCCN(S(=O)(=O)c3cc(Cl)ccc3Cl)C2)CC1 (stereo unspecified)	i	1.45
Nc1ccc(S(=O)(=O)Nc2ccc(C(=O)c3ccccc3)cc2)cc1	i	-0.08
Cn1cnc2cc(NC(=O)c3cccs3)ccc21	i	0.56
CCn1c(=O)c(C(=O)CN2c3ccccc3CC2C)c(N)n(Cc2ccccc2)c1=O (stereo unspecified)	i	-0.17
Cc1ccccc1-n1nc(C)c2cc(C(=O)N3CCOCC3)sc21	i	0.6
Cc1ccc(NC(=S)N(Cc2ccc(Br)cc2)Cc2ccc(C(=O)O)cc2)cc1C	i	-0.01
CC(=O)NS(=O)(=O)c1cccnc1Nc1cccc(Cl)c1	i	2.62
CSc1nnc(-c2sc3cc(C(F)(F)F)cnc3c2-c2ccccc2)n1C	i	-0.54
COC(=O)COC(=O)c1ccccc1NC(=O)c1ccccc1	i	1.75
COC(=O)CNC(=O)CSc1nc2c(sc(=S)n2-c2ccccc2)c(=O)[nH]1	i	0.71
CN1CCN(S(=O)(=O)c2ccc(NC(=O)Cc3ccc([N+](=O)[O-])cc3)cc2)CC1	i	0.12
CC1Cc2ccccc2N1C(=O)CN1CCc2ccccc2C1 (stereo unspecified)	i	2.5

Among those listed so far, these contain fluorine:
SMILES	KCNQ2 block	KCNQ2 block baseline
Cc1ccc(C)c(-n2c(-c3ccc(Br)cc3)csc2=NC(=O)c2ccccc2F)c1	i	1.03
Cc1nonc1C1CCCN1Cc1nc(-c2ccc(F)cc2F)oc1C (stereo unspecified)	i	-0.77
Cc1cc(CNC(=O)C2CCC(=O)N(CCc3cccc(F)c3)C2)on1 (stereo unspecified)	i	0.04
FC(F)(F)c1cc(C(F)(F)F)c2ccc(N3CCN(c4ccccc4)CC3)nc2n1	i	-1.14
Nc1c(C(=O)C2CC2)sc2nc(-c3cccs3)cc(C(F)(F)F)c12	i	1.81
COc1ccc2c(=O)c(Oc3ccc(C(=O)O)cc3)c(C(F)(F)F)oc2c1	i	-1.14
O=S(=O)(c1ccc(F)cc1)N1CCN=C1SCc1cccc(F)c1	i	-0.03
Cn1nc(C(F)(F)F)c(/C=N/OC(=O)c2ccccc2Cl)c1SCc1ccc(Cl)cc1	i	0.94
O=C(Nc1ccccc1N1CCN(c2ccccc2)CC1)c1ccccc1F	i	-0.85
CSc1nnc(-c2sc3cc(C(F)(F)F)cnc3c2-c2ccccc2)n1C	i	-0.54

Next section
SMILES	KCNQ2 block	KCNQ2 block baseline
COc1ccccc1-n1c(-c2ccccc2)c[n+]2c1CCc1ccccc1-2	i	-0.15&-2.05
CCc1ccc(NC(=O)Cn2c(=O)n(CCC(=O)NC3CCN(Cc4ccccc4)CC3)c(=O)c3ccccc32)cc1	i	0.5
CN(Cc1ccc(Cl)cc1Cl)C(=O)c1cccc(S(=O)(=O)N2CCN(c3ccccc3)CC2)c1	i	0.64
O=C(CCc1nc2ccccc2s1)Nc1ccccc1	i	-0.09
O=C(CCn1cnnn1)N1CCCC(Nc2ccc(F)c(F)c2)C1 (stereo unspecified)	i	4.32
CCC(=O)N1CCc2cc(OC)c(OC)cc2C1COc1ccc(F)cc1 (stereo unspecified)	i	-0.03
Fc1ccccc1-c1nc(-c2ccc(Br)o2)no1	i	-1.78
